tim23-1 inh: growth inhibitors of tim23-1 mutant yeast; 1.3% of 330,000 active; S. cerevisiae tim23-1 growth, BacTiter-Glo luminescence, 24 h; inhibition, % at 20 µM;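 active = growth inhibition of the mutant yeast at or above 50%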;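 note: temperature-sensitive mutant grown at 25 °C; plate controls were DMSO-treated mutant yeast for no effect and medium wells lacking yeast for full effect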
UPR XBP1 act: adaptive UPR (XBP1) activation; CHO-XBP1 luciferase reporter, IRE1-XBP1 UPR activation, luminescence; percent of tunicamycin response, DMSO as zero; activation, % at 20 µM; 0.33% of 330,000 active;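 active = versus positive control, 20 µM dose yields 30% or more activation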;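 note: 100% = tunicamycin at 10 µg/mL and 0% = DMSO only wells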
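Material: IRE1-XBP1 luciferase reporter CHO line / Quantity: one thousand reporter cells per well / Buffer or medium: F12 with 10% serum / Compound: 20 µM single concentration, DMSO 1% / Times: 6 h treatment, 37 °C / Detection: Steady-Glo luciferase glow luminescence, 10 min after reagent addition / Benchmarks: tunicamycin high, DMSO low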
APJ antagonist: blocks the human apelin receptor APJ. P35414. CHO-K1 APJ beta-arrestin complementation, luminescence. inhibition, % at 20 µM. 0.32% of 330,000 active. AID 2521;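 active = inhibition above about 40% at 20 µM, limit read from the data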;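 note: cells challenged with 10 nM apelin-13 agonist together with compound; plate controls were apelin-13 plus DMSO wells for no effect and DMSO wells lacking apelin-13 for full effect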
Target sequence (P35414 whole entry, looked up): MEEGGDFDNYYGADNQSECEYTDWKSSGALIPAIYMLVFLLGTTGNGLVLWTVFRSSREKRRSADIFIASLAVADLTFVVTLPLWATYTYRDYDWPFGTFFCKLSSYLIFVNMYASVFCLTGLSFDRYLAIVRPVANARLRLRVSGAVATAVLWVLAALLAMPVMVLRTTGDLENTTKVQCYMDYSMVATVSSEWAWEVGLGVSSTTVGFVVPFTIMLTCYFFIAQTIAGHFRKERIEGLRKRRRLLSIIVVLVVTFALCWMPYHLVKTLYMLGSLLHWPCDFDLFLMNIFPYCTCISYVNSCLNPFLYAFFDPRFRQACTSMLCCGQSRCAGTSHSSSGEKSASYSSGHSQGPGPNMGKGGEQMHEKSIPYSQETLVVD
UPR CHOP act: apoptotic UPR (CHOP) activation; CHO-CHOP luciferase reporter, luminescence; percent of tunicamycin response over DMSO baseline; activation, % at 10 µM; 0.34% of 330,000 active; AID 449763;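 active = at 10 µM dose, activation of 40% or more, normalized to positive control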;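 note: 100% = tunicamycin at 10 µg/mL and 0% = DMSO alone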
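Assay system: CHO-CHOP cells, stable luciferase reporter of PERK-eIF2a-CHOP signalling / Buffer or medium: F12 plus 10% serum / Compound dosing: one dose, 10 µM in 0.5% DMSO / Times: 6 h compound treatment, 37 °C / Technique: luciferase luminescence / Read-out: % reporter activation, DMSO baseline versus tunicamycin full activation / Benchmarks: tunicamycin and DMSO controls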
APJ ag: APJ receptor agonism; P35414; CHO-K1 APJ PathHunter beta-arrestin, luminescence; 0% DMSO wells, 100% apelin; activation, % at 20 µM; 0.11% of 330,000 active;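 active = activation more than six SD over the plate average, tested at 20 µM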;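 note: 0% = DMSO alone and 100% = apelin-13 at 10 nM; some results filed as inactive read as strong as hits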
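system = engineered CHO-K1 APJ arrestin reporter cells | input = 1000 cells per well | timing = overnight seeding, 90 min compound at 25 °C, 1 h detection | measured by = enzyme-fragment complementation luminescence | read-out = beta-arrestin recruitment to APJ as agonist activity, luminescent signal | control set = negative DMSO alone, positive Apelin-13 at 10 nM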
Numbers without * were called inactive; & = joins results of further samples. An excerpt (hit frequency here may not be typical).

SMILES	tim23-1 inh	UPR XBP1 act	APJ antagonist	UPR CHOP act	APJ ag
CN/C(=C/[N+](=O)[O-])NCCSCc1ccc(CN(C)C)o1	-40	-7	3	0.6	1
CCCCC1(COC(=O)CCC(=O)O)C(=O)N(c2ccccc2)N(c2ccccc2)C1=O	10	-4	2	1.8	1
CC(=O)c1cccc(NC(=O)CNC(=O)Cc2ccccc2)c1	-2	2	12	0.2	-1
CCCC(=O)Nc1ccc(OCC(O)CNC(C)C)c(C(C)=O)c1 (configuration not stated)	-12	-8	-2	0.5	-3
CCc1nc(N)nc(N)c1-c1ccc(Cl)cc1	-2	-5	3	-2.8	1
CC(N)C12CC3CC(CC(C3)C1)C2 (configuration not stated)	10&-13	6&-2	17&2	0.0&-0.4	-1&-4
CN(C)Cc1cc(C(C)(C)C)c(O)c(C(C)(C)C)c1	1	-1	7	-0.6	-2
CC(COc1ccccc1)N(CCCl)Cc1ccccc1 (configuration not stated)	-15	-5	6	-0.1	-5
N=C(N)N1CCc2ccccc2C1	13	-6	4	0.1	-5
O=C1c2c(O)cccc2Cc2cccc(O)c21	-14	-2	-97	0.0	-3
CNS(=O)(=O)Cc1ccc2[nH]cc(CCN(C)C)c2c1	-3	-4	6	0.0	-1
COc1ccc(S(=O)(=O)c2c(O)c3ccc(C(=O)Nc4ccccc4Cl)cc3[nH]c2=O)cc1	11	0	0	-0.4	-3
COc1ccc([C@@H]2Sc3ccccc3N(CCN(C)C)C(=O)[C@@H]2OC(C)=O)cc1	12	-4	19	-1.3	3
Cc1c(O)cccc1C(=O)N[C@@H](CSc1ccccc1)[C@H](O)CN1C[C@H]2CCCC[C@H]2C[C@H]1C(=O)NC(C)(C)C	17	4	0	14	1
CC(=O)O[C@H]1C(=O)[C@@]2(C)[C@H]([C@H](OC(=O)c3ccccc3)[C@]3(O)C[C@H](OC(=O)[C@H](O)C(NC(=O)c4ccccc4)c4ccccc4)C(C)=C1C3(C)C)[C@]1(OC(C)=O)CO[C@@H]1C[C@@H]2O (some centres not stated)	-4	3	12	2.3	-3

Another view of some results above:
Screens in order – tim23-1 inh	UPR XBP1 act	APJ antagonist	UPR CHOP act	APJ ag
CN/C(=C/[N+](=O)[O-])NCCSCc1ccc(CN(C)C)o1
    -40	-7	3	0.6	1
CCCCC1(COC(=O)CCC(=O)O)C(=O)N(c2ccccc2)N(c2ccccc2)C1=O
    10	-4	2	1.8	1
CC(=O)c1cccc(NC(=O)CNC(=O)Cc2ccccc2)c1
    -2	2	12	0.2	-1
CCCC(=O)Nc1ccc(OCC(O)CNC(C)C)c(C(C)=O)c1 (configuration not stated)
    -12	-8	-2	0.5	-3
CCc1nc(N)nc(N)c1-c1ccc(Cl)cc1
    -2	-5	3	-2.8	1
CC(N)C12CC3CC(CC(C3)C1)C2 (configuration not stated)
    10&-13	6&-2	17&2	0.0&-0.4	-1&-4
CN(C)Cc1cc(C(C)(C)C)c(O)c(C(C)(C)C)c1
    1	-1	7	-0.6	-2
CC(COc1ccccc1)N(CCCl)Cc1ccccc1 (configuration not stated)
    -15	-5	6	-0.1	-5
N=C(N)N1CCc2ccccc2C1
    13	-6	4	0.1	-5
O=C1c2c(O)cccc2Cc2cccc(O)c21
    -14	-2	-97	0.0	-3
CNS(=O)(=O)Cc1ccc2[nH]cc(CCN(C)C)c2c1
    -3	-4	6	0.0	-1
COc1ccc(S(=O)(=O)c2c(O)c3ccc(C(=O)Nc4ccccc4Cl)cc3[nH]c2=O)cc1
    11	0	0	-0.4	-3
COc1ccc([C@@H]2Sc3ccccc3N(CCN(C)C)C(=O)[C@@H]2OC(C)=O)cc1
    12	-4	19	-1.3	3
Cc1c(O)cccc1C(=O)N[C@@H](CSc1ccccc1)[C@H](O)CN1C[C@H]2CCCC[C@H]2C[C@H]1C(=O)NC(C)(C)C
    17	4	0	14	1
CC(=O)O[C@H]1C(=O)[C@@]2(C)[C@H]([C@H](OC(=O)c3ccccc3)[C@]3(O)C[C@H](OC(=O)[C@H](O)C(NC(=O)c4ccccc4)c4ccccc4)C(C)=C1C3(C)C)[C@]1(OC(C)=O)CO[C@@H]1C[C@@H]2O (some centres not stated)
    -4	3	12	2.3	-3

Remaining list, next part:
SMILES	tim23-1 inh	UPR XBP1 act	APJ antagonist	UPR CHOP act	APJ ag
CCN(C(=O)N(CC)c1ccccc1)c1ccccc1	8	-1	1	-1.0	-2
CCc1nnc(NC(=O)CCS(=O)(=O)c2ccccc2)s1	11	-3	9	-1.3	-1
CC(C)c1ccc(NC(=O)c2ccc(Br)o2)cc1	42	-1	5	3.2	-2
Cc1noc(C)c1CSCC(=O)Nc1nc(-c2ccc(F)c(F)c2)cs1	25	-3	-17	0.4	25
O=C1c2cccc(O)c2C(=O)c2c(O)cc(CO)cc21	71*	-3	-135	0.8	2
CC(=O)NO	-21	-4	3	0.7	2
O=c1[nH]cnc2c1ncn2[C@H]1CC[C@@H](CO)O1	6	-5	-5	-2.4	-4
CC1(C)CC(N2CCCC2)=CC(=[N+]2CCCCCC2)C1	12	2	9	-0.9	-5
CCc1ccc(NC(=O)Nc2ccsc2C(=O)OC)cc1	56*	-4	-5	0.7	3
CC(=O)c1cccc(NC(=O)c2ccc([N+](=O)[O-])o2)c1	77*	2	-29	0.7	12
c1ccc2c(c1)[nH]c1ccccc12	-3	5	10	1.4	1
Cn1c(=O)c2c(ncn2C)n(C)c1=O	-15	-1	-9	-1.8	-1
c1ccc2nc(-c3ccc4c(c3)OCO4)ccc2c1	13	-1	-6	0.5	-2
CC(CN(C)C)CN1c2ccccc2CCc2ccccc21 (configuration not stated)	6	-10	13	0.5	-2
CCCCCCC[N+](CC)(CC)CCCCc1ccc(Cl)cc1	-6	-5	9	1.9	5
Brc1ccc(-c2cn3ccccc3n2)s1	23	-7	7	0.5	0
CCC(=O)OC1(C(=O)CCl)[C@@H](C)C[C@H]2[C@@H]3CCC4=CC(=O)C=C[C@]4(C)[C@@]3(F)[C@@H](O)C[C@@]21C (some centres not stated)	14	-8	7	-0.1	-2
CCC(C)(CN(C)C)OC(=O)c1ccccc1 (configuration not stated)	2	-5	4	0.3	-4
CCCCCCCCC(=O)O	43	1	-65	0.0	9
Cc1cc(C)c(C)c(S(=O)(=O)N2CCN(c3ncnc4ccccc34)CC2)c1C	47	0	-33	3.9	0
COC(=O)C1=C(C)N(C)C(=O)NC1c1c(OC)ccc2ccccc12 (configuration not stated)	0	2	-10	0.6	-3
CC1(C)S[C@@H]2[C@H](NC(=O)[C@H](N)c3ccccc3)C(=O)N2[C@H]1C(=O)O	-2	-6	1	-0.7	1
Nc1cnn(C2OC(CO)C(O)C2O)c(=O)n1 (configuration not stated)	-7	10	14	-1.1	-3
CC(=O)OCC(=O)[C@@]1(O)CCC2C3CCC4=CC(=O)CCC4(C)C3C(=O)CC21C (some centres not stated)	11	-5	14	0.7	1
CC(C)(C)CC(C)(C)c1ccc(OCCOCC[N+](C)(C)Cc2ccccc2)cc1	28	-4	39	3.0	-5
Cc1cc(C(C)(C)C)cc(C)c1CC1=NCCN1	7	-8	1	1.1	-4
COC(=O)CN1C(=O)COc2ccc(S(=O)(=O)NCc3ccc(F)cc3)cc21	3	-4	0	0.4	-3
Cc1ccc(C(=O)NN=CC(=O)c2ccccc2)c(C)c1	3	-7	3	-4.7	-1
Cc1ccc(C(=O)OCC(=O)c2ccccc2)cc1	15	-4	11	3.8	-2
COC(=O)C1=C(C)NC(C)=C(C(=O)OCCN(C)Cc2ccccc2)C1c1cccc([N+](=O)[O-])c1 (configuration not stated)	16	-6	12	-0.1	-1
COc1c(N2CCNC(C)C2)c(F)cc2c(=O)c(C(=O)O)cn(C3CC3)c12 (configuration not stated)	3	5	9	-0.8	2
CC(C)C[C@H]1C(=O)N2CCC[C@H]2[C@]2(O)O[C@](NC(=O)[C@@H]3C=C4c5cccc6[nH]c(Br)c(c56)CC4N(C)C3)(C(C)C)C(=O)N12 (some centres not stated)	24	6	0	8.8	5
NC(=O)c1cccnc1	1	-2	3	5.1	-3
CC(=O)Nc1ccc(NC(=O)c2ccc(C)c(S(=O)(=O)Nc3cccc(C)c3)c2)cc1	18	-4	-2	0.2	-1
Fc1ccccc1-c1nc(-c2ccc(Cl)cc2)no1	2	-3	2	2.9	-3
COc1ccccc1OCCCOc1cccc(/C=C2\SC(=O)NC2=O)c1	22	-2	-2	-0.8	-1
COc1c(N2C[C@@H]3CCCN[C@@H]3C2)c(F)cc2c(=O)c(C(=O)O)cn(C3CC3)c12	-12	-5	-1	-1.8	0
O=C(O)CCNC(=O)c1ccccc1	10	-6	2	0.0	-6
Nc1ccn([C@@H]2O[C@H](CO)[C@@H](O)C2O)c(=O)n1 (some centres not stated)	6	-6	16	-0.9	-7
Cc1onc(-c2c(Cl)cccc2Cl)c1C(=O)N[C@@H]1C(=O)N2[C@@H]1SC(C)(C)[C@@H]2C(=O)O	15&-10	-9&-5	-5&6	1.2&-0.6	-3&0
Cc1cccc(CN2CCN(C(c3ccccc3)c3ccc(Cl)cc3)CC2)c1 (configuration not stated)	32	-8	17	-0.5	-7
Cc1cc(C)c(S(=O)(=O)Nc2ccc(-c3cn4ccccc4n3)cc2)c(C)c1	32	0	-22	0.4	2
CN=C(C[N+](=O)[O-])NCCSCc1ccc(CN(C)C)o1	-71	-1	3	-0.9	-2
CC1(C)CC(N2CCCC2)=CC(=[N+]2CCCCC2)C1	7	-1	-16	-2.2	0
C[C@H]1C[C@H]2[C@@H]3CCC4=CC(=O)C=C[C@]4(C)[C@@]3(Cl)[C@@H](O)C[C@]2(C)[C@@]1(O)C(=O)CO	0	-4	-1	-0.7	-3
CC(=O)O[C@H]1C[C@@H]2CC[C@@H]3[C@H](CC[C@@]4(C)[C@H]3C[C@H]([N+]3(C)CCCCC3)[C@@H]4OC(C)=O)[C@@]2(C)C[C@@H]1N1CCCCC1	10	-5	-12	0.6	5
CCCCCCCCCS(=O)(=O)N/N=C/c1cccc([N+](=O)[O-])c1	24	-1	-2	-0.7	-2
COc1ccc(-c2coc3cc(O)cc(O)c3c2=O)cc1	68*	-2	9	2.6	-2
Cc1ncc([N+](=O)[O-])n1CCO	-15	-9	4	1.0	-4
OCc1cc(C(O)CNCCCCCCOCCCCc2ccccc2)ccc1O (configuration not stated)	-3&10	-6&-2	-1&7	-1.4&15	7&-4
Cc1cc(C2CCCCC2)n(O)c(=O)c1	66*	-1	7	-2.3	5
CC(=O)Nc1ccc(OCC(O)CNC(C)C)cc1 (configuration not stated)	12	-6	13	1.5	-3
Oc1cc(Cl)cc(Cl)c1Cl	18	0	2	1.0	-1
OCCNCCO	12	-3	-48	-1.3	-5
CC[C@H]1OC(=O)[C@H](C)[C@@H](O[C@H]2C[C@@](C)(OC)[C@@H](O)[C@H](C)O2)[C@H](C)[C@@H](O[C@@H]2O[C@H](C)C[C@H](N(C)C)[C@H]2O)[C@](C)(OC)C[C@@H](C)C(=O)[C@H](C)[C@@H](O)[C@]1(C)O	20	-5	12	0.4	4
O=C(Cc1ccc(S(=O)(=O)N2CCOCC2)s1)N1CCN(c2ccc(C(F)(F)F)cc2[N+](=O)[O-])CC1	9	-1	11	3.2	10
CC1=C(/C=C/C(C)=C/C=C/C(C)=C/C(=O)O)C(C)(C)CCC1	10	0	14	-0.9	-4
CCCCNC(=O)NS(=O)(=O)c1ccc(C)cc1	-3	-6	1	-2.7	-4
NS(=O)(=O)c1cc2c(cc1Cl)NCNS2(=O)=O	11	-6	2	0.0	-3
N#C/C(=C(/O)c1ccc(-c2cccc([N+](=O)[O-])c2)o1)c1nc2ccccc2s1	15	5	-7	1.3	-1

High-throughput results deposited in PubChem by Sanford-Burnham Center for Chemical Genomics.
